Source: PubChem BioAssay
2A Renilla – lowers the Renilla signal of an FMDV 2A StopGo reporter. Potency, µM (highest dose often 57.5 µM), without a hit: top-dose signal change, negative = less light. 0.32% of 120,000 active. HEK cells with a luciferase reporter of 2A StopGo recoding. AID 1745857; active means well fitted falling curve with a large enough effect; inconclusive means small, poorly fitted or top-dose-only effect; inactive means no such curve, though single readings can be large or run the other way; also: nearly all actives have a fitted effect of over 55% in size; overnight with compound
2A firefly – FMDV 2A StopGo reporter, firefly signal; Potency, µM (doses to about 57.5 µM), for the others: at the top dose signal change, negative = less light; HEK cells with a luciferase reporter of 2A StopGo recoding; 0.23% of 120,000 active; active = well fitted falling curve with a large enough effect; inconclusive = small, poorly fitted or top-dose-only effect; inactive = no such curve, though single readings can be large or run the other way; also: nearly all actives have a fitted effect of over 60% in size; overnight with compound
* marks the source's active call; other numbers are inactive results; ? = inconclusive; & = joins results of further samples; [ ] = another dose, or the depositor's remark. % is scaled to controls: 0 for no effect and ±100 for the full control effect; potency is read from the fitted curve at half-maximal effect.

Compound | 2A firefly | 2A Renilla
Cc1cc(=O)oc2cc(OCC(=O)NCCc3ccc(S(N)(=O)=O)cc3)ccc12 | -7.3% | -12.5%
C=C(C)CC1C(Br)=CCC[N+]1(C)C (stereo not given) | 7.1% | 4.5%
Cn1c(=O)c(=O)n(C)c2cc(S(=O)(=O)N3CCN(c4ccc(F)cc4)CC3)ccc21 | -12.1% | -5.8%
C=CCN1C(=O)COc2ccc(NC(=O)c3cc(=O)c4cccc(C)c4o3)cc21 | -5.0% | -1.7%
CCOC(=O)c1ccccc1NC(=O)Cn1c(=O)n(-c2ccc(CC)cc2)c(=O)c2c(C)c(C(=O)N(C)C)sc21 | -7.8% | -8.3%
CC(=O)c1ccc(OCc2ccc3c(c2)OCO3)cc1 | -8.5% | 5.3%
CCN1C(=O)c2ccccc2S(=O)(=O)c2ccc(C(=O)NCc3ccccc3)cc21 | 0.2% | 50.3%[activator]
N#Cc1nc(-c2ccc(Cl)cc2)oc1NCC1CCCO1 (stereo not given) | 222.0%[activator] | 28.0%
CCc1ccc(C(=O)c2cnc3ccc(F)cc3c2S(=O)(=O)c2ccccc2)cc1 | -17.0% | -18.2%
CCc1ccc(NC(=O)N(Cc2c[nH]c3ccccc23)C2CCCCC2)cc1 | 145.9%[activator] | 1.6%
COc1ccc2cc(CNC3CCCc4ccccc43)ccc2c1 (stereo not given) | 26.4% | 19.8%
Cc1cccc(C)c1NC(=O)Cn1nnc(C(=O)Nc2c(C)cccc2C)c1N | -30.5% | -11.8%
COc1ccc(C2CC(=O)Nc3c2c(C)nn3-c2ncnc3nc[nH]c23)cc1OC (stereo not given) | 3.1% | -3.3%
Cc1cccc(N2CCN(C(=O)CN3C(=O)COc4ccc(S(=O)(=O)N5CCCCCC5)cc43)CC2)c1C | -3.0% | -10.9%
COc1ccc(OC)c(CCNC(=O)Cn2ncc3c([nH]c4ccccc43)c2=O)c1 | 0.9% | 15.2%
O=C(Nc1cccc(-c2nc3ccccc3o2)c1)c1cc([N+](=O)[O-])ccc1N1CCOCC1 | 1.1%&-4.3% | -1.3%&-5.4%
Cc1ccc(C(=O)N(CC#N)C2CC2)s1 | -3.8% | -0.4%
Cc1csc(SCc2cc(Cl)c3c(c2)OCCO3)n1 | 153.2%[activator] | 11.4%
O=C(CN1CCN(CC(=O)Nc2ccc(F)cc2)CC1)NCCc1c[nH]c2ccccc12 | 6.3% | 4.0%
COCC(C)n1c(COc2ccccc2F)nnc1SCC(=O)OC(C)(C)C (stereo not given) | 1.9% | 30.9%[activator]
Cc1ccc2oc(=O)cc(CN(Cc3ccccc3)Cc3ccco3)c2c1 | 17.3% | 4.3%
COc1ccc(CN(C(=O)c2cc3ccccc3oc2=O)C2CCS(=O)(=O)C2)cc1OC (stereo not given) | 222.9%&67.6%[activator] | 14.1%&-3.5%
Cc1cc2ccccc2n1CCNC(=O)c1cccc(Br)c1 | 11.7% | 1.8%
CCc1nnc2c(N3CCN(c4cccc(C)c4)C(C)C3)nc3ccccc3n12 (stereo not given) | -14.9% | -15.3%
Oc1cccc(O)c1 | -10.2%[11.5 µM] | 61.2%[activator]
CCCCNC(=O)CSc1nc2cc3c(cc2c(=O)n1CCCCCC(=O)NCCc1ccc(OC)c(OC)c1)OCO3 | -15.1% | -5.9%
Cc1cccc(Nc2nc(N)c(C(=O)C(C)C)s2)c1 | 470.1%[activator] | 3.1%
Cc1ccccc1CSc1cn(CC(=O)N2CCCC2)c2ccccc12 | 115.9%[activator] | 88.4%[activator]
Cc1nc2nc(SCC(=O)NCc3ccc(F)cc3)nn2c(C)c1Cc1ccccc1 | 5.6% | 14.3%
COc1ccc(-c2cn3nc(N4CCCC(C(=O)Nc5cc(C)ccc5C)C4)sc3n2)cc1 (stereo not given) | -4.1% | -12.1%

Among those listed so far, five have fluorine:
Compound | 2A firefly | 2A Renilla
Cn1c(=O)c(=O)n(C)c2cc(S(=O)(=O)N3CCN(c4ccc(F)cc4)CC3)ccc21 | -12.1% | -5.8%
CCc1ccc(C(=O)c2cnc3ccc(F)cc3c2S(=O)(=O)c2ccccc2)cc1 | -17.0% | -18.2%
O=C(CN1CCN(CC(=O)Nc2ccc(F)cc2)CC1)NCCc1c[nH]c2ccccc12 | 6.3% | 4.0%
COCC(C)n1c(COc2ccccc2F)nnc1SCC(=O)OC(C)(C)C (stereo not given) | 1.9% | 30.9%[activator]
Cc1nc2nc(SCC(=O)NCc3ccc(F)cc3)nn2c(C)c1Cc1ccccc1 | 5.6% | 14.3%

Back to the main list, starting 2 compounds before the break.
Compound | 2A firefly | 2A Renilla
Cc1nc2nc(SCC(=O)NCc3ccc(F)cc3)nn2c(C)c1Cc1ccccc1 | 5.6% | 14.3%
COc1ccc(-c2cn3nc(N4CCCC(C(=O)Nc5cc(C)ccc5C)C4)sc3n2)cc1 (stereo not given) | -4.1% | -12.1%
COC(=O)C1=C(C)N(c2ccccc2)C(=O)CC1C(=O)Nc1cc(OC)c(OC)c(OC)c1 (stereo not given) | -8.5% | -20.8%
COCCN1C(=O)C(=O)/C(=C(/O)c2ccc3c(c2)OCCO3)C12C(=O)N(C)c1ccccc12 (stereo not given) | -1.7% | -14.6%
Cc1cc(Br)cc(Cl)c1OCC(=O)N1CCN(C(=O)c2ccco2)CC1 | -7.7% | -5.6%
CC(C)c1ccc2oc(-c3ccc(NC(=O)c4cc5ccccc5o4)cc3)nc2c1 | 49.2%[activator] | 20.4%
Cc1ccccc1OCC(=O)N1CCC(c2nc3ccccc3o2)CC1 | 11.6% | -1.9%
CC(C)(C)C(=O)NCCc1ccsc1 | 12.5% | -9.4%
CN(CC1CCCCC1)C(=O)CCc1c[nH]c2ccccc12 | 84.0%[activator] | 36.5%[activator]
CC(=O)c1cccc(NC(=O)Cn2c(=O)c3c(ncn3CC(C)C)n(Cc3ccccc3)c2=O)c1 | -4.3% | 8.3%
O=S(=O)(c1ccc(-c2csc(=Nc3ccc(OC(F)(F)Cl)cc3)n2CCCO)cc1)N1CCCC1 | ? | ?
CC(C)C(Br)C(=O)NC(N)=O (stereo not given) | -5.7%&-16.2% | -6.2%&-6.8%
CCc1cccc(CC)c1NC(=O)Cn1nc(C(=O)O)c2ccccc2c1=O | -6.1% | -11.6%
COc1ccc(C2=NC(C)(C)N(CC(=O)Nc3cccc(C)c3)C2=O)cc1 | 0.0% | 0.7%
Cc1ccc(C(=O)NCc2ccccc2)cc1NC(=O)c1nsc2ccccc12 | 90.7%[activator] | 43.2%[activator]
CC(NCc1ccc(C(C)(C)C)cc1)c1ccc(S(C)(=O)=O)cc1 (stereo not given) | 13.7% | -12.1%
Cc1[nH]c(C)c(S(=O)(=O)Nc2ccc(C(C)C)cc2)c1C(=O)N1CCCCC1 | -1.8% | 0.0%
CCOc1ccccc1NC(=O)Cn1c(=O)n(CCCC(=O)NCc2ccc(C)cc2)c(=O)c2ccccc21 | 5.2% | 7.7%
CCn1cc(C(=O)N2CCN(c3ccc(F)cc3)CC2)c(=O)c2cc(S(=O)(=O)N3CCOCC3)ccc21 | -15.4% | 2.3%
Cn1c(=O)c2c(nc(N3CCCC3)n2Cc2ccccc2Cl)n(C)c1=O | -2.8% | -5.7%
CCOC(=O)C1=C(C)Nc2nc(SCc3ccc(F)cc3)nn2C1c1cccs1 (stereo not given) | 16.3% | 6.9%
COc1ccc(NC(=O)Cc2c(F)cccc2Cl)cc1 | 133.8%[activator] | 13.1%
Cc1ccc(-c2nc(CS(=O)(=O)CC(=O)N3CCN(c4cc(C)ccc4C)CC3)c(C)o2)cc1 | 13.6% | -2.0%
C=CCC1(CC=C)CNCCN1 | 11.7% | 6.6%
COc1ccc(-c2nc3ccc(C)cn3c2Nc2ccc3c(c2)OCO3)cc1 | 73.9%[activator] | -10.0%
CCOc1ccc(Cn2c(=O)c3sccc3n(CC(=O)NCc3ccccc3Cl)c2=O)cc1 | 24.6% | 11.2%
Cc1cc(=O)oc2cc(OCC(=O)NCc3cccc(C(F)(F)F)c3)ccc12 | -0.6% | -5.5%
CCc1cccc(NC(=O)CN(c2ccc(C)c(C)c2)S(=O)(=O)c2ccsc2C(=O)OC)c1 | -21.4% | 67.0%[activator]
CCN1/C(=C/C=C/c2sc3ccccc3[n+]2CC)Sc2ccccc21 | 3.16µM* | ?
Cc1cn2c(=O)cc(COC(=O)COc3ccccc3C)nc2s1 | -3.6% | -3.3%
CC(NS(=O)(=O)Cc1ccc(F)cc1)c1cccnc1 (stereo not given) | 4.9% | 2.4%
CC(C)OC(=O)C(C)Oc1ccc2c(=O)c(Oc3ccccc3Br)coc2c1 (stereo not given) | 4.7% | -4.7%
Cc1ccccc1CSc1nc2cccnc2n1Cc1ccc(C(=O)NC2CC2)cc1 | 50.6%[activator] | ?
Cc1cccc(N(CC(=O)Nc2c(C)cccc2C)S(C)(=O)=O)c1C | 21.9% | 47.7%
CCN(c1ccc(OC)cc1)S(=O)(=O)c1c(C(=O)N2CCCCCC2)c(C)n(C)c1C | -13.1% | 16.9%
Cc1ccc([N+](=O)[O-])cc1N=Cc1ccc(C#Cc2ccccc2)cc1 | 205.8%[activator] | 0.7%
Cn1nnnc1SCCNCc1ccc(OCc2ccc(Cl)cc2)cc1 | 68.8%[activator] | -2.2%
Cc1ccc(C(=O)c2ccccc2C(=O)OC/C=C/c2ccccc2)cc1C | 5.3% | 23.8%
Cc1nc2cc(C(=O)O)ccc2n1-c1ccc(C(C)C)cc1 | 143.2%[activator] | -18.0%
Cc1cccc2c(C(=O)NCCN3CCOCC3)cc(-c3ccc(Cl)cc3)nc12 | -3.8% | -1.4%
O=C1CCCC2=C1C(c1cccnc1)C1=C(CCCC1=O)N2 | 33.0%[activator] | 29.7%
COc1cc2c(cc1OC)n(CC(=O)c1cc(C)ccc1C)c(=O)n1nc(CCn3nc(C)cc3C)nc21 | -10.2% | -3.9%
CC(=O)Nc1ccc(NC(=O)c2cc(-c3ccccn3)nc3ccccc23)cc1 | 22.7% | 12.7%
CN1CCC(OC(=O)c2ccccc2)(c2ccccc2)C(C)(C)C1 (stereo not given) | -6.1% | 8.5%
O=C(CN1CCN(C(=O)c2cc(C3CC3)nc3ccccc23)CC1)NC1CC1 | 1.0% | -8.6%
O=C(Nc1ccc2oc(-c3ccc(F)cc3)nc2c1)c1ccc2c(c1)OCCO2 | 9.4% | -2.8%
O=C(COc1ccccc1)N(Cc1cccnc1)c1nc2ccc(Cl)cc2s1 | -8.5% | -4.2%
COc1ccc2c(CN3CCC(CO)CC3)cc(=O)oc2c1 | 106.9%[activator] | 1.8%
COc1cccc(-c2csc(-c3c(N)c(C(=O)c4ccc5c(c4)OCO5)n4ccccc34)n2)c1 | 8.7% | -2.9%
O=C(Cn1cc(S(=O)(=O)Cc2ccccc2Cl)c2ccccc21)Nc1ccc(F)cc1F | -4.6% | 79.7%[activator]
O=C1c2ccccc2NC2(CCSC2)N1c1ccc2c(c1)OCO2 (stereo not given) | 177.8%[activator] | -9.6%
CCOc1ccc(S(=O)(=O)Nc2ccc3oc(C)c(C(=O)OCCOC)c3c2)cc1 | 0.3% | 216.4%[activator]
N#C/C(=C/C=C/c1ccccc1)C(=O)Nc1ccccc1Oc1ccccc1 | 6.0% | 14.8%
Cc1ccccc1-c1noc(-c2cc3c(COC(=O)C(C)C)cnc(C)c3oc2=O)n1 | 10.9% | -0.2%
O=C(CN1CCN(c2ccccc2)CC1)Nc1cccc2ncccc12 | -7.0% | -1.7%
CCOc1ccc2c(c1)C(NC(C)=O)C(=O)N2CCOc1ccccc1 (stereo not given) | 34.3%[activator] | 0.4%
Cn1c(NCCCO)nc2c1c(=O)n(Cc1cccc(F)c1)c(=O)n2C | -3.9% | 2.2%
O=C(O)/C=C/c1ccc(SC(F)F)cc1 | 8.0% | 6.9%
Cc1cc2c(=O)c(C(=O)c3ccncc3)cn(CC(=O)Nc3cccc(C)c3C)c2cc1C | -10.9% | -6.2%
COc1ccc(CNC(=O)Cc2coc3ccc(C(C)C)cc23)cc1 | 143.3%[activator] | 183.9%[activator]
COC(=O)CCCNC(=O)Cn1ccc2cc(Br)ccc21 | 1.4% | 11.2%
CCc1ccc(/C=C/C(=O)c2ccc(O)c(CCCl)c2)cc1 | 167.9%[activator] | 16.1%

Following part.
Compound | 2A firefly | 2A Renilla
COc1ccc(S(=O)(=O)N(CC(=O)NCc2ccccc2)c2ccc(C)cc2)cc1OC | 12.2% | 2.5%
Cc1ccc(C(=O)OCC(=O)Nc2ccccc2N2CCCC2=O)c(O)c1 | 3.1% | -4.8%
COCCCn1c(CCn2cc(Cl)cn2)n[nH]c1=S | 5.8% | -1.1%
CCc1cccc2c(C(=O)O)cc(-c3ccccc3C)nc12 | 16.2% | -3.2%[1.06 µM]
Cc1c(CC(=O)NC[C@@H](C)O)c(=O)oc2cc(O)c(Cl)cc12 | 0.3% | -3.9%
COc1ccc(-c2noc(COc3cc(C)ccc3C)n2)cc1OC | 5.2% | -11.9%
COc1ccccc1C1SCC(=O)Nc2c1c(C)nn2-c1cccc(C)c1 (stereo not given) | -14.1% | 5.8%
CCOC(=O)c1cnn(-c2ncnc3sc4c(c23)CCC(C)C4)c1N (stereo not given) | -1.5% | 2.6%
Cc1c(Cl)cccc1NC(=O)CSC1=NS(=O)(=O)c2ccccc2N1Cc1ccccc1 | -5.8% | -7.7%
CCCCCc1ccc(-c2ccc(/C=C/C#N)cc2)nc1 | 27.5% | -5.4%
Cc1cccc(NS(=O)(=O)c2cc(-c3cnc(C)o3)ccc2C)c1 | ? | 44.0%[activator]
COc1cccc(NC(=O)CSC2=Nc3ccccc3C3=NC(CC(=O)NCc4ccc5c(c4)OCO5)C(=O)N23)c1 (stereo not given) | 37.6%[activator] | ?
